Compound activity: PubChem BioAssay, National Center for Advancing Translational Sciences (NCATS)
VDR inh: Inhibitors of the vitamin D receptor (VDR): qHTS; VDR-SRC2-3 peptide fluorescence polarization, 2 h; Potency, µM, for inactives: max response, negative = inhibition, hits mostly inhibitors; hit rate 0.93% among 400,000; active = well fitted inhibition curve with a large enough effect; inconclusive = small, poorly fitted or top-dose-only effect, or another doubt; inactive = no such curve, though single readings can be large or run the other way; note: series mostly up to about 120 µM
Target sequence (P11473 whole entry, looked up): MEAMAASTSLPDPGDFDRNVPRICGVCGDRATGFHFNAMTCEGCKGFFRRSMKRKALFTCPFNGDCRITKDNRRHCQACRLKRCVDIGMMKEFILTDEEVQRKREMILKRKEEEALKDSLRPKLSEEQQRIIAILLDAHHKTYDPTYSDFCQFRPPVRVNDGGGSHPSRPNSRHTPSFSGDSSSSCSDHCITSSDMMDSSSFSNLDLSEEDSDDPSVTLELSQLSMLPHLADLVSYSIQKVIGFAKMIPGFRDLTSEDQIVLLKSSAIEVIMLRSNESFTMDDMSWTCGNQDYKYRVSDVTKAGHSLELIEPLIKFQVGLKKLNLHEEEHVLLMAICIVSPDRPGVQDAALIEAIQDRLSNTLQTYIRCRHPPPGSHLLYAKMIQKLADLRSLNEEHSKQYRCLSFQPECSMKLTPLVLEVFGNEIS
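The screen uses fluorescence polarization to detect compounds that interfere with recruitment of the SRC2-3 coactivator peptide to VDR; plates are read after 2 h at room temperature.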
* marks the source's active call; other numbers are inactive results; ? = inconclusive; & = joins results of further samples; ! = not active in a repeat. % is set by controls: 0 for no effect and ±100 for the full control effect; potency is the fitted concentration of half-maximal effect. Only part of the results is shown, so the mix of outcomes need not match the whole.

canonical_smiles | VDR inh
COc1ccc2sc(N(CCCN(C)C)C(=O)c3ccc(S(=O)(=O)N4CCc5ccccc5C4)cc3)nc2c1 | 14%
CCc1ccc(CNc2ncnc3c2nc2n3CCCC2)cc1 | 3%
COC(=O)C1(C(C[N+](=O)[O-])c2ccc(C)cc2)C(=O)NCC1c1ccco1 (centres undefined) | -6%
COc1ccc(-c2nc(CC(=O)Nc3cccc(S(=O)(=O)NC4=NCCC4)c3)cs2)cc1 | -21%
CCn1c(=O)c(C(=O)Nc2cc(OC)c(OC)c(OC)c2)nc2ccccc21 | -24%
Cc1cccnc1NC(N)=S | 1%
N#CC1(c2nc3ccccc3[nH]2)CC1c1ccc2c(c1)OCO2 (centres undefined) | 20%
CC(OC(=O)C1CC1C)C(=O)Nc1ccc(Cl)cn1 (centres undefined) | 0%

Further structures follow.
canonical_smiles | VDR inh
O=C(COC(=O)C1CCC1)Nc1cccc(Cl)c1 | 2%
COc1ccc(N(CC(=O)Nc2cccc(C)c2C)S(=O)(=O)c2c(C)[nH]c(=O)[nH]c2=O)cc1 | 15%
CN1CCN(C(=O)c2ccc(C(F)(F)F)cc2)CC1 | -22%
COc1cc(NC(=O)COC(=O)CNC(=O)C23CC4CC(CC(C4)C2)C3)cc(OC)c1 | 12%
O=C(N=Nc1c(O)[nH]c2ccccc12)c1cccs1 | 11%
COc1ccc(CNc2ncnc3onc(C)c23)cc1 | 6%
O=C(Cc1ccccc1)N/N=C/c1cccs1 | 4%
Cc1ccc(-c2ccc(SCC(=O)NC3CCCC3)nn2)cc1 | 6%

Continuation:
canonical_smiles | VDR inh
O=C(COc1ccc(Cl)cc1)N(Cc1ccccc1)c1nc(-c2ccccc2)cs1 | -3%
O=C(NC(=O)N1CCCCC1)c1ccccc1 | -11%
CC(C)C[C@@H](CN=[N+]=[N-])N1CCN(C)CCC1=O | -3%
O=C(O)/C=C/C(=O)c1ccc2c(c1)NC(=O)CO2 | 22µM*
O=C(Nc1ccc(O)cc1)C1CCCO1 (centres undefined) | 3%
COc1ccc(CCN2C(=NC(=O)C(C)C)SC3CS(=O)(=O)CC32)cc1 (centres undefined) | 2%
COc1ccc(CNC(=O)C(C)Sc2nc3ccccc3c(=O)n2CC2CCCO2)cc1 (centres undefined) | 7%
Cn1c(=O)c2[nH]c(-c3ccc(S(=O)(=O)O)cc3)nc2n(C)c1=O | 1%&-6%

Later entries:
canonical_smiles | VDR inh
Cc1ccc(C)c(N2CCN(C(=O)CN3C(=O)COc4ccc(S(=O)(=O)N5CCC(C)CC5)cc43)CC2)c1 | 7%
O=C(CCC(=O)c1ccc(Cl)cc1)OCc1nc2ccsc2c(=O)[nH]1 | -12%
O=C(CSc1nnc(-c2ccc(Cl)cc2)n1Cc1ccco1)c1cccs1 | -25%
CN1CCN(c2ccccc2NC(=O)c2cccs2)CC1 | -16%
c1ccc(CN2CCN(c3nc(-c4ccccn4)nc4ccccc34)CC2)cc1 | -8%
COc1ccc(-c2nsc3c(N4CCN(S(=O)(=O)c5ccccc5F)CC4)ncnc23)cc1 | 6%
C=CCC(C)(O)c1cccs1 (centres undefined) | -2%
COC(=O)c1nnn(-c2nonc2N)c1CSc1nc2ccccc2s1 | -16%

Carrying on.
canonical_smiles | VDR inh
COc1ccc(CNC(=O)c2ccc3c(c2)CCN3S(=O)(=O)c2ccc(Cl)cc2)cc1 | 3%
COc1ccc(C2C(C#N)=C(N)Oc3cc(O)ccc32)cc1Cl (centres undefined) | -13%
CC1CC(C)CN(CC(O)COCc2ccccc2)C1 (centres undefined) | 14%
COc1ccc2c(CNCc3cccs3)c(C(=O)O)n(Cc3ccccc3C)c2c1 | -5%
COc1ccc(NC2=C(NC(C)=O)C(=O)c3ccccc3C2=O)cc1 | -7%
O=C(O)CCC(=O)Nc1ccc(NC(=O)c2ccc(Cl)cc2Cl)c(Cl)c1 | -11%
CC(=O)c1ccc(N2CCN(C(=O)COc3ccc(F)cc3)CC2)c(F)c1 | -2%
COCCN(Cc1ccco1)C(=O)Cn1ncc2c(=O)oc3ccccc3c21 | 15%

Continuation.
canonical_smiles | VDR inh
CCOc1cc(/C=C2/C(=O)N(c3ccccc3)N=C2C)ccc1OC(=O)c1ccco1 | ?
CC1CCCN(Cc2nc3c(c(=O)n(C)c(=O)n3C)n2CC(N)=O)C1 (centres undefined) | -3%
CCCCN(C)c1nc(-c2ccco2)c2c(c1C#N)CC(C)(C)OC2 | 20µM*
COc1cccc(OCc2nc3ccccc3n2Cc2ccccc2)c1 | 20%
CCCN1C(=O)c2[nH]nc(-c3ccc(F)cc3)c2C1c1ccc(O)c(OCC)c1 (centres undefined) | 10%
CCN(CC)S(=O)(=O)c1ccc(OC)c(N)c1 | 8%
Cc1nc2sccn2c(=O)c1CCN1CCC(=C(c2ccc(F)cc2)c2ccc(F)cc2)CC1 | 79µM*!
O=C(Cn1ncn2c(cc3ccccc32)c1=O)NCc1ccco1 | 2%

(list continues)
canonical_smiles | VDR inh
Cc1cc(C)n(-c2nc3nonc3nc2Nc2cccc(C)c2C)n1 | -13%
Clc1ccc(-c2nc3ccccc3[nH]2)cn1 | -3%
O=C(CNCc1cccc(Cl)c1)N1CCc2ccccc2C1 | -1%
COC(=O)c1cn(NC(=O)Cn2nc([N+](=O)[O-])c(Br)c2C)c(=O)c2ccccc12 | -3%
Cc1ccc(C)c(NC(=O)CSc2ncnc3nc[nH]c23)c1 | -6%
CCN(C(=O)CSc1ccc(S(=O)(=O)N2CCOCC2)cn1)c1ccccc1 | -16%
COc1cccc(CN2CC(C(=O)NCCc3ccccc3C(F)(F)F)CCC2=O)c1 (centres undefined) | 13%
CCC1(C(=O)OC)NC(c2ccco2)C2C(=O)N(c3ccc(F)cc3)C(=O)C21 (centres undefined) | -12%

A different layout for some results above.
COc1cc(NC(=O)COC(=O)CNC(=O)C23CC4CC(CC(C4)C2)C3)cc(OC)c1
  VDR inh: 12%

O=C(N=Nc1c(O)[nH]c2ccccc12)c1cccs1
  VDR inh: 11%

COc1ccc(CNc2ncnc3onc(C)c23)cc1
  VDR inh: 6%

O=C(Cc1ccccc1)N/N=C/c1cccs1
  VDR inh: 4%

Single entries from the entries so far:
Under VDR inh, COc1ccc(CCN2C(=NC(=O)C(C)C)SC3CS(=O)(=O)CC32)cc1 (centres undefined) has the entry 2%
Under VDR inh, CCC1(C(=O)OC)NC(c2ccco2)C2C(=O)N(c3ccc(F)cc3)C(=O)C21 (centres undefined) has the entry -12%
Under VDR inh, Cc1ccc(C)c(N2CCN(C(=O)CN3C(=O)COc4ccc(S(=O)(=O)N5CCC(C)CC5)cc43)CC2)c1 has the entry 7%
Under VDR inh, Cc1ccc(C)c(NC(=O)CSc2ncnc3nc[nH]c23)c1 has the entry -6%
Under VDR inh, O=C(Cc1ccccc1)N/N=C/c1cccs1 has the entry 4%
Under VDR inh, O=C(CNCc1cccc(Cl)c1)N1CCc2ccccc2C1 has the entry -1%
Under VDR inh, COc1cccc(CN2CC(C(=O)NCCc3ccccc3C(F)(F)F)CCC2=O)c1 (centres undefined) has the entry 13%

Next part.
canonical_smiles | VDR inh
CC(=O)Nc1ccc(NC(=O)c2cccc(Oc3ccccc3)c2)cc1 | ?
Cc1ccc(-c2c(C(=O)N/N=C/c3ccc4c(c3)OCO4)nnn2-c2nonc2N)cc1 | 6%
COc1cccc(NC2C=CS(=O)(=O)C2)c1 (centres undefined) | 8%
COc1ccc(CNC(=O)Cn2cc(C(F)(F)F)ccc2=O)cc1 | -13%
Cc1ccc(NC(=O)CCCCCN2C(=O)[C@@H]3Cc4ccccc4CN3C2=O)c(Cl)c1 | -5%
Cc1cccc2cc(CN(Cc3ccco3)C(c3nnnn3CCc3ccccc3)C(C)C)c(=O)[nH]c12 (centres undefined) | 17%
COc1cc(OC)c2c(c1)C(=O)c1cc(OC)cc(OC)c1C2=O | -3%
O=S(=O)(c1ccc2nc(-c3ccccc3)[nH]c2c1)N1CCN(c2cccc(Cl)c2)CC1 | -15%

New compounds follow
canonical_smiles | VDR inh
CCOC(=O)N1CCN(C(=O)CCS(=O)(=O)c2ccc3c(c2)CCN3C(=O)CC)CC1 | 4%
CN=C(Nc1cc(C)nn1CCC#N)c1ccccc1F | 8%
O=C1CN(C(=O)c2ccc(S(=O)(=O)N3CCCC3)cc2)C(c2ccccc2)c2cc(Br)ccc2N1 (centres undefined) | -2%
COc1ccc(/C(O)=C2/C(=O)C(=O)N(CCCN(C)C)C2c2cccc(Cl)c2)cc1OC (centres undefined) | 10%
CCC(=O)N1CCc2cc(S(=O)(=O)CCC(=O)N3CCN(c4cccc(C)c4)C(C)C3)ccc21 (centres undefined) | -28%
O=C(CN1CCCN(S(=O)(=O)c2ccc(Br)s2)CC1)Nc1ccc(Cl)cc1 | -1%
N#CC(C#N)=C(Nc1ccc(F)cc1)SCc1cccc(Br)c1 | ?
COc1ccccc1Nc1nnc(SCC2CCCCO2)s1 (centres undefined) | -12%

(further entries)
canonical_smiles | VDR inh
CNC(=O)c1c(NC(=O)c2ccc(N3C(=O)CCC3=O)cc2)sc2c1CCC(C)C2 (centres undefined) | -3%
CCC(=O)Nc1sc2c(c1C#N)CCC2 | -2%
CCN(C(=O)c1ccccc1)c1ccc([N+](=O)[O-])cc1 | -28%
O=C(CN1CCN(c2ccc(O)cc2)CC1)Nc1cc([N+](=O)[O-])ccc1Cl | 6%
COc1ccc(OCc2cc(C(=O)NCCc3ccccc3)no2)c(Cl)c1 | -9%
COc1ccccc1N(C(=O)c1cncc(Br)c1)c1nc(-c2ccc(C)cc2)cs1 | -23%
c1coc(-c2nnc(NC3=NCCC3)o2)c1 | 9%
Cc1cc(C)cc(NS(=O)(=O)c2ccc(-c3cnc(C4CC4)o3)cc2)c1 | -28%

Further entries follow.
canonical_smiles | VDR inh
COc1cccc(Nc2ncc3nc(-c4ccc(Cl)cc4)c(=O)n(C4CC4)c3n2)c1 | -17%
CNS(=O)(=O)c1cccc(C(=O)OCC(=O)c2c(N)n(C)c(=O)n(C)c2=O)c1 | -4%
NC(=O)NC(=O)CC1S/C(=N/N=C2/NC(=O)CS2)NC1=O (centres undefined) | -29%
Cc1cc(OCC(=O)N2CCOCC2)ccc1NC(=O)c1ccccc1C | -1%
COc1ccc(S(=O)(=O)Cc2ccc(C(=O)NCCc3ccc(S(N)(=O)=O)cc3)o2)cc1 | 11%
CC(Sc1cnccn1)C(=O)O (centres undefined) | -12%
CC(C)(C)NC(=O)NC(=O)CSc1nnc2ccccn12 | 7%
CCOC(=O)CSC1=N/C(=C\c2cccnc2)C(=O)N1c1ccc(OC)cc1 | -1%

Further compounds follow.
canonical_smiles | VDR inh
COc1ccc(/C=N/Nc2cc(C)nc(NS(=O)(=O)c3ccc(C)cc3)n2)cc1 | 1%
O=C(NCC1CCCO1)c1ccc(COc2ccccc2Br)cc1 (centres undefined) | -5%
COc1cc(C2Nc3ccc4ccccc4c3C3=C2C(=O)CC(C)(C)C3)ccc1OC(C)C(=O)O (centres undefined) | 13%
N#Cc1cc(Sc2ccccn2)c(Sc2ccccn2)cc1C#N | 15%
Cn1cc(C(=O)N/N=C/C(Br)=C/c2ccccc2)ccc1=O | ?
Cc1cccc(NC(=S)N(Cc2cccs2)Cc2cc3cc(C)cc(C)c3[nH]c2=O)c1 | -10%
Cc1ccccc1NC1=NC(=S)N(c2ccccc2)C12CCOC(C)(C)C2 (centres undefined) | -6%
Fc1ccc(CNc2ncnc3onc(-c4ccc(F)cc4)c23)cc1 | 13%

Continuation.
canonical_smiles | VDR inh
CC1=CC(C)(C)N2C(=O)C3(NCCc4c3[nH]c3ccccc43)c3cc(C)cc1c32 (centres undefined) | 4%
Cc1cccc(N2CCN(C(=O)C3CCN(S(=O)(=O)N4CCOCC4)CC3)CC2)c1C | 6%
O=C(Cc1ccccc1F)NCC1(N2CCOCC2)CCCCC1 | 0%
Cc1ccc(CC(=O)N(Cc2nc(-c3ccc(C)cc3)no2)C(C)C)cc1 | 7%
Cc1cc2ncn(C(=O)N3CCC(C)CC3)c2cc1C | -6%
Cc1ccc(S(=O)(=O)CCC(=O)OCC(=O)c2c(N)n(CC(C)C)c(=O)n(C)c2=O)cc1 | 9%
CCn1c(CNC(=O)c2ccccc2F)nnc1SCCOc1ccccc1 | -5%
CCN(Cc1ccccc1)C(=O)Cn1cc(S(=O)(=O)Cc2cccc(Cl)c2)c2ccccc21 | 14%

The listing continues:
canonical_smiles | VDR inh
Cc1cc(OCC(=O)N(C)c2ccccc2)cc2c1C(=O)CC(C)(C)O2 | 11%
Cc1ccccc1CSCCNC(=O)c1ccc(N(C)S(=O)(=O)c2ccccc2)cc1 | 1%
CC(=O)c1cccc(NC(=O)/C=C/c2ccc([N+](=O)[O-])s2)c1 | ?
O=C(CNC(=O)c1ccccc1F)Nc1ccc2c(c1)CCC2 | 0%
C=CCn1c(=O)[nH]c2nc3cc(N=CN(C)C)c(C)cc3nc2c1=O | -9%
Cc1ccc(S(=O)(=O)/N=C2/C=C(C3C(=O)CC(C)(C)CC3=O)C(=O)c3ccccc32)cc1 | ?
COc1cccc(N(C(=O)c2snc(C(N)=O)c2N)C(C(=O)NCC2CCCO2)c2ccc3ncccc3c2)c1 (centres undefined) | -30%
Cn1c(SCc2ccc(Br)cc2)nc2c(c1=O)SCC2 | -19%

The results go on:
canonical_smiles | VDR inh
N#Cc1ccccc1NC(=O)COC(=O)CSc1nc2ccccc2o1 | 0%
Cc1ccc(-c2nc(CN(C)Cc3ccc4nccnc4c3)c(C)o2)s1 | 10%
Cc1cc(NCc2ccco2)nc(N2CCC(C(=O)NC3CCCCC3)CC2)n1 | 9%
CCCc1ccc2oc(C(=O)N(C)Cc3nccs3)c(C)c2c1 | -10%
CC(C)(C)NC(=O)Cn1c(=O)oc2cc(S(=O)(=O)N3CCc4ccccc43)ccc21 | -14%
COC(=O)c1ccc(NC(=O)CCc2c(C)nn(-c3ccc(N4CCCC4)nn3)c2C)cc1 | 11%
CC1(c2ccccc2)NC(=O)N(CC(=O)Nc2cc(C(F)(F)F)ccc2N2CCCCC2)C1=O (centres undefined) | -7%
COc1ccc(NC(=O)c2ccco2)c([N+](=O)[O-])c1 | 11%
COC(=O)c1cc(Br)c(N)cc1OC | -1%
